# gsp antag = antagonists of gsp mutant (McCune-Albright syndrome). gsp-mutant cells, cAMP HTRF, 30 min; control for the full effect not named in the record. Potency, µM (doses to about 76.9 µM), without a hit: top-dose activity change, negative = inhibition, actives largely listed as inhibitors. actives 0.4% (n = 340,000); active = falling curve of any shape with a large fitted effect; inconclusive = falling curve, mostly with a smaller effect; inactive = flat or rising curve; cell line not stated here;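 also: intracellular cAMP measured with PDE inhibitor Ro 20-1724 present during compound exposure; potency is read from the fitted curve at half-maximal effect; % is scaled to controls: 0 for no effect and ±100 for the full control effect; nearly all actives have a fitted effect of over 65% in size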
#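 Cells in G418 medium, seeded 16-24 h, 37C; buffer exchange to DPBS + 1 mM CaCl2, 0.5 mM MgCl2, 0.05% BSA; cpds in DMSO + […] (300 uM stock), 30 min 37C; HTRF cAMP detection.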
# ClpP mod = qHTS Assay for Activators of ClpP; Potency, µM (titrated, usually from 57.5 µM), for inactives: at the top dose activity change, negative = active; ATP-dependent Clp protease proteolytic subunit (Bacillus subtilis (strain 168)), P80244; purified B. subtilis ClpP, FRET peptide cleavage, 20 min; actives 1.9% (n = 340,000); active = well fitted falling curve with a large enough effect; inconclusive = small, poorly fitted or top-dose-only effect; inactive = no such curve, though single readings can be large or run the other way; also: potency is read from the fitted curve at half-maximal effect; the source files actives as falling curves though it sought activators and does not explain the sign; nearly all actives have a fitted effect of over 65% in size; many hits overshoot -100%
# Target sequence (P80244 whole entry, looked up): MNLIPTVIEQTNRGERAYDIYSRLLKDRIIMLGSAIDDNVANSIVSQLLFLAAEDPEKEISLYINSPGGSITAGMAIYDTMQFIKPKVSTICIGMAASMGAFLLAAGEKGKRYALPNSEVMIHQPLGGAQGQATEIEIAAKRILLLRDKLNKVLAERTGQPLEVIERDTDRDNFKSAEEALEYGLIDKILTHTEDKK
#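 Buffer: 100 mM Tris/HCl pH8, 100 mM KCl, 0.05% low protease BSA, 2.5% glycerol, 0.01% Tween-20. ClpP 10 microg/mL final; 20 min RT; delta FRET normalized to ADEP and DMSO controls.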
# TRPML1 agonist = activates the human TRPML1 channel | Q9GZU1 | TRPML1-expressing cells, Ca2+ dye fluorescence, FDSS; host cell line not named in the record; reference of the full effect not given here | activation, % (concentration not given with the values) | actives 0.12% (n = 410,000); in the data active = activation above about 50%; inconclusive = about 30% to 50%; inactive = below about 30%; also: 0% is about no effect; the text of the record puts the active cut at 80%
# Target sequence (Q9GZU1 whole entry, looked up): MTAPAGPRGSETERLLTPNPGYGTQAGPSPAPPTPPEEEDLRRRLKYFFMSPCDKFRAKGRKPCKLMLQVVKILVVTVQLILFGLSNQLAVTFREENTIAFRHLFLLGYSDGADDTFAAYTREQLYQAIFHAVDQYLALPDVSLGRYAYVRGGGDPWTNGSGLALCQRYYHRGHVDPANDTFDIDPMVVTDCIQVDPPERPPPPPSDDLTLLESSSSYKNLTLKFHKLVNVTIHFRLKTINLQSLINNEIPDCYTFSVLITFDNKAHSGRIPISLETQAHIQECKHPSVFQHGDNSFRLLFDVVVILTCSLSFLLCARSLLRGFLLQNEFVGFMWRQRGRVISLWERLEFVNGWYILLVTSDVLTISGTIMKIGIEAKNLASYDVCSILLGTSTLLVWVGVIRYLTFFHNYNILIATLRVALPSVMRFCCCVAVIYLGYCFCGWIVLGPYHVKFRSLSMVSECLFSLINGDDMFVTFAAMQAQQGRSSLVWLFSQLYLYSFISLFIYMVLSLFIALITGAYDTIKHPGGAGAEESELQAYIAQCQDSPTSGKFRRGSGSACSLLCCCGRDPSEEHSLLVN
#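 Tet-induced TRPML1-DL cells, 1,500 per well, cultured overnight, were loaded with a no-wash Ca2+ dye for 45–90 min. Calcium fluorescence was recorded on the FDSS for 110 s after compound addition, before the EC80 agonist (4 uM 54-4) was added.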
# Menin MLL FP FL = inhibitors of human menin-MLL interaction, wild-type MLL peptide | 290,000 tested, under 10 active | FP activity change, % at 61.4 µM | Fluorescence polarization, fluorescein-MLL peptide displacement from menin; inconclusive = falling polarisation curve, or a change in total fluorescence; inactive = total fluorescence flat and polarisation flat or rising; no compound was filed as active; the % refers to the polarisation; negative = inhibition;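 also: % of control where 0% means no effect; inhibitors lower the polarisation; unlabelled MLL peptide was the positive control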
# gsp agonist = activates gsp, the McCune-Albright syndrome mutation; actives 0.13% (n = 340,000); AID 624287; gsp mutant cells, cAMP HTRF, 30 min; control for the full effect not named in the record; Potency, µM (doses to about 76.9 µM), for the others: top-dose activation (cAMP increase), usual class: activators; active = well fitted activation curve with a large enough effect; inconclusive = small, poorly fitted or top-dose-only effect, or another doubt; inactive = no such curve, though single readings can be large or run the other way; cell line not stated here;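 also: phosphodiesterase inhibitor Ro 20-1724 added with compounds to block cAMP breakdown; potency is read from the fitted curve at half-maximal effect; nearly all actives have a fitted effect of over 60% in size; about a fifth of the inactives were tested at one dose only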
#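 Cells in DMEM/10% FBS with G418 were pretreated with compounds in DMSO plus […] (300 uM stock) for 30 min at 37C. cAMP was measured by HTRF (cAMP-d2 plus anti-cAMP antibody-K) after 30 min at room temperature.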
# TRPML1 blocker = inhibitors of human TRPML1 channel; Q9GZU1; TRPML1-inducible cells, Ca2+ dye fluorescence, FDSS; stronger effect = lower value; inhibition of EC80 agonist-evoked calcium signal; activity change, negative = inhibition, % (test concentration not listed); actives 0.02% (n = 390,000); AID 624415; in the data active means activity change below about -50%; inconclusive means about -30% to -50%; inactive means above about -30%;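 also: stimulus is agonist 54-4 at its EC80 concentration; % is scaled to controls: 0 for no effect and ±100 for the full control effect; compound concentration not given in the record; the text of the record puts the active cut at -80%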
#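 TRPML1-DL cells, Tet-induced overnight (~16 h, 37 °C) at 1,500 cells/well, were loaded with Ca8 no-wash dye plus quencher for 45-90 min at room temperature. Compounds were pinned during FDSS kinetic reading; agonist 54-4 at EC80 (4 uM final) then added.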
# * marks the source's active call; other numbers are inactive results; ? = inconclusive; / = not tested or not shown; [ ] = remark or other dose. This is a random part of the collection; about 2.1% have a hit in one of these screens.
SMILES,gsp antag,ClpP mod,TRPML1 agonist,Menin MLL FP FL,gsp agonist,TRPML1 blocker
CCOCCCNC(=S)Nc1cc(C)cc(C)c1,13%,-1.2%,-0.7,2.5,-17%,40
CC(C)CCN(C(=S)Nc1cccc(F)c1)C1CCN(C(C)C)CC1,7%,/,0.0,1.3,26%[15.4 µM],-6
COc1ccc(S(=O)(=O)N2CCCC2)cc1NC(=O)c1ccccc1F,2%,-0.5%,-1.3,/,-1%[15.4 µM],24
Cc1csc(=O)n1CC(=O)OCC(=O)Nc1ccc(F)c(F)c1,8%,/,2.7,/,-6%[15.4 µM],0
CN(C(=O)COC(=O)CCc1c[nH]c2ccccc12)C(c1ccccc1)c1ccccc1,-6%,-4.1%,2.1,1.1,4%,15
O=C(Nc1ccc(F)cc1)c1cncs1,11%,0.1%,-0.6,3.2,14%[15.4 µM],5
CCOc1ccccc1NC(=O)/C=C/c1ccc(S(=O)(=O)N2CCOCC2)cc1,-7%,-2.4%,0.3,/,10%,1
CSc1ncccc1C(=O)Nc1cccc(S(=O)(=O)N2CCCC2)c1,-1%,-2.2%,0.1,/,4%,-7
C/C(=N/NC(=O)Cc1cccs1)c1ccco1,-12%,0.8%,0.8,3.3,6%,4
COc1ccc2nc(NC(=O)CSc3cn[nH]n3)sc2c1,-27%,/,0.2,-2.2,9%[15.4 µM],8
Cn1c(=O)c2c(ncn2CC(=O)Nc2ccccc2)n(C)c1=O,8%,-0.2%,1.1,0.2,4%,-4
COc1ccc(C(=O)NC(=S)Nc2ccc(N3CCOCC3)c(Cl)c2)cc1[N+](=O)[O-],13%,-0.9%,0.3,-4.5,13%,24
COc1cc(C(=O)NCCCNc2nc3c(C)cc(C)cc3cc2C#N)cc(OC)c1OC,-6%,/,0.8,-2.4,3%,3
Cc1ccc(-c2nnc(SCC(=O)N/N=C/c3ccc(C(=O)O)cc3)n2C2CCCCC2)cc1,3%,1.5%,0.3,-3.4,-35%,5
COc1ccc(C(C)=O)cc1CSc1nnc(C)n1-c1ccccc1,9%,-30%,-1.3,/,0%,-6
COc1ccc(C)cc1NC(=O)NCc1ccc2c(c1)CCN2C(=O)c1ccccc1,/,1.3%,2.1,/,/,22
COC(=O)Cc1ccc(NC(=S)N2CCN(c3ccc(F)cc3)CC2)cc1,-8%,1.6%,0.1,6.8,3%,6
CC(C)c1ccc(NC2CCCN(C(=O)c3n[nH]c4c3CCC4)C2)cc1 (configuration not stated),-12%,-0.6%,-1.9,0.1,3%,8
CCCn1c(=N)n(CC(=O)c2ccc([N+](=O)[O-])cc2)c2ccccc21,-17%,/,1.2,-8.3,-24%[15.4 µM],1
O=C(CSc1nc2ncccc2[nH]1)c1ccc(F)cc1,-2%[15.4 µM],-4.5%,1.4,2.3,2%,11
O=c1c2ccccc2nnn1CSc1nnnn1-c1ccc(O)cc1,-11%,0.9%,1.7,1.3,-1%,-3
COc1ccc(N2CCN(CCNC(=O)Nc3cc(Cl)ccc3OC)CC2)cc1,8%,-1.4%,-0.6,?,-2%,38
CCOc1ccc(NC(=O)N2CCC(n3c(C)nc4cccnc43)CC2)cc1,/,-0.8%,0.2,/,/,-13
Cc1cc(SCC(=O)c2ccc(O)c(O)c2)n2nc(C)c(-c3ccccc3)c2n1,-23%,0.1%,/,1.6,?,/
Nc1ccc(C(=O)N2N=C(c3ccc(F)cc3)CC2(O)C(F)(F)F)cc1 (configuration not stated),-2%,-3.9%,1.7,-5.6,?,-2
O=C(CCCc1ccccn1)c1cccc2ccccc12,-7%,-8.3%,0.9,/,14%[15.4 µM],-7
O=C1CSc2ccc(C(=O)N3CCCCC3)cc2N1,/,0.5%,-0.3,/,-18%,29
CCC1CCCCN1C(=O)Cn1c(=O)n(-c2ccccc2C(F)(F)F)c(=O)c2c(C)c(C(=O)N(C)C)sc21 (configuration not stated),/,0.9%,0.4,/,/,-18
COc1ccc(Cl)cc1NC(=O)c1nnn(CC(=O)Nc2cc(C)cc(C)c2)c1N,-5%,-7.1%,0.5,-2.1,?,-5
CCN(CC)CCNC(=O)c1sc2nc(C)cc(C)c2c1-n1cccc1,/,1.3%,0.6,/,/,-7
CCC1CN(C(=O)N2CCC(C(=O)NCc3ccc(N(C)C)cc3)CC2)c2ccccc2O1 (configuration not stated),/,0.3%,1.8,/,/,-19
CCOC(=O)c1c(C)[nH]c(C)c1S(=O)(=O)N1CCC(C(=O)NCc2ccc(C)cc2)CC1,/,0.0%,-0.3,/,/,9
O=C1S/C(=C/c2ccccc2)C(=O)N1CC(O)Cn1c2ccccc2c2ccccc21 (configuration not stated),5%,-11%,1.6,2.3,-7%,-5
COC(=O)CSc1nc2ccc(N)cc2s1,-8%,/,-0.4,2.7,3%[15.4 µM],3
CCOc1ccccc1NC(=O)C(C)Sc1cc(-c2ccccc2)nc(C)n1 (configuration not stated),/,0.1%,1.6,/,/,43
Cc1cccc(NC(=S)N(CCCN2CCOCC2)Cc2cn(C)c3ccccc23)c1,-8%,-2.8%,0.8,-1.4,-3%[15.4 µM],10
Cc1c(N=Cc2c(O)n(C3CCCCC3)c(=O)[nH]c2=O)c(=O)n(-c2ccccc2)n1C,-1%,0.3%,-0.5,9.5,11%,-1
CC1(C)CC(=O)C2=C(C1)Nc1ccccc1NC2,5%,/,-0.6,?,-11%[15.4 µM],1
Nc1ccc(C(=O)Nc2ccc(Nc3ccncc3)cc2)c([N+](=O)[O-])c1,/,0.9%,-0.3,/,0%,-4
O=C(Nc1ccc(F)cc1)c1ncn(-c2ccccc2)n1,/,-2.5%,0.0,/,/,-16

# Exported with two lines to a compound: two of the compounds above.
# Value order – gsp antag, ClpP mod, TRPML1 agonist, Menin MLL FP FL, gsp agonist, TRPML1 blocker
- CCC1CN(C(=O)N2CCC(C(=O)NCc3ccc(N(C)C)cc3)CC2)c2ccccc2O1 (configuration not stated)
    /, 0.3%, 1.8, /, /, -19
- Nc1ccc(C(=O)Nc2ccc(Nc3ccncc3)cc2)c([N+](=O)[O-])c1
    /, 0.9%, -0.3, /, 0%, -4

# Going on with the list.
SMILES,gsp antag,ClpP mod,TRPML1 agonist,Menin MLL FP FL,gsp agonist,TRPML1 blocker
COc1cccc(C(C(=O)NC2CCCCC2)N(CCN2CCOCC2)C(=O)C2COc3ccccc3O2)c1 (configuration not stated),/,/,-0.5,1.3,8%[15.4 µM],0
O=C(NCCN1CCOCC1)NC1(C(F)(F)F)Oc2ccc(Cl)cc2O1 (configuration not stated),11%,-3.0%,1.1,-3.0,14%,25
COCCN(C(=S)Nc1cc(C)cc(C)c1)C(C)c1ccco1 (configuration not stated),-7%,-1.5%,0.9,0.8,-5%,-12
CCOc1ccc2[nH]c(S(=O)(=O)CC)nc2c1Cl,?,1.0%,-0.4,3.0,-27%,-1
O=C(Oc1ccccc1N1C(=O)C2CC=CCC2C1=O)c1ccc(Br)cc1 (configuration not stated),-7%,-3.4%,3.9,4.7,-18%[15.4 µM],5
COC(=O)C1=CN(Cc2ccc(OC)cc2)C=C(C(=O)OC)C1c1cccs1,?,/,1.9,9.1,-13%,55
Cc1nnc(SCC(=O)NNC(=O)c2ccccc2)n1-c1ccccc1,14%,1.4%,-0.1,4.9,-40%[inhibitor],-7
Cn1c(-c2ccsc2)c(-c2cccs2)c2cc(-c3cccc4[nH]ccc34)ccc21,-3%,-20%,3.1,/,/,12
Cc1c(C(=O)N2CCCCC2)c(S(=O)(=O)N2CCN(c3ccccc3F)CC2)c(C)n1C,-20%,2.4%,-0.8,-0.7,25%,-8
O=C(CN1CCN(c2ccc(O)cc2)CC1)NC(c1ccccc1)c1ccccc1,-2%,-8.0%,0.7,4.5,-49%[inhibitor],2
COc1ccc([N+](=O)[O-])cc1NCC(=O)Nc1cccc(S(=O)(=O)N2CCCC2)c1,-5%,3.3%,0.3,/,3%,5
COc1ccc(OCc2nnc(SCC(=O)Nc3ccccc3Cl)o2)cc1,3%,/,-0.6,4.0,-6%[15.4 µM],19
CCc1nnc(NC(=O)CSc2nnc(-c3ccc(S(=O)(=O)N4CCCC4)cc3)n2CC)s1,-22%,-6.3%,-1.4,-4.9,-14%,12
CCOCCCNC(=O)C(NC(=O)c1ccccc1O)c1ccccc1 (configuration not stated),3%,/,0.5,-2.9,-1%[15.4 µM],9
CCOc1ccc2c(c1)C(C)=CC(C)(C)N2C(=O)Nc1ccccc1F,6%,28µM*,-0.1,4.1,-23%,-3
O=C(CSc1ccc(-c2ccco2)nn1)NCc1ccccc1Cl,17%,-9.1%,-0.5,-1.2,11µM*,5
O=C(Nc1ccccc1Cl)N1CCN(c2ccc3nncn3n2)CC1,4%,-0.2%,-0.1,2.0,-21%,-5
COCCn1c(C)cc(O)c(C(c2ccc(Cl)cc2)N2CCN(c3ccccc3)CC2)c1=O (configuration not stated),/,0.8%,0.2,/,/,7
CCOC(=O)c1cccc(NC(=O)N2CC=C(c3c[nH]c4ccccc34)CC2)c1,/,-6.1%,2.6,/,/,-21
O=C(COC(=O)c1cccc(S(=O)(=O)N2CCCCCC2)c1)NCc1ccc(Cl)cc1,4%,-2.7%,5.4,/,14%,44
Cc1nc(C)n(CCNS(=O)(=O)c2ccccc2)n1,7%,/,0.0,3.1,1%,-7
Cc1cc(C)n2nc(C(=O)OCC(=O)c3cc(C)n(C)c3C)nc2n1,14%,0.9%,0.1,-0.6,19%,-12
Cc1ccc(-c2ccc(CCC(=O)O)n2NC(=O)c2cccs2)cc1,-24%,-3.6%,-0.4,1.9,9%,-7
COc1ccc(/C=C\c2onc(C)c2S(=O)(=O)N2CCC(C(=O)NCc3ccco3)CC2)cc1,0%,/,-0.9,2.6,27%,3
CCOC(=O)/C(=N\Nc1cc(Cl)ccc1Cl)N1CCN(CC)CC1,1%,0.1%,0.5,3.7,-4%,1
Cc1cc2ccc(C)c(C)c2nc1SCC(=O)c1cccs1,?,-0.5%,1.3,18,21%,18
COc1ccccc1CN(C)C(=O)C1(c2ccc(Cl)cc2)CC1,-1%,-1.5%,0.3,7.9,5%[15.4 µM],-2
Cc1ccc(S(=O)(=O)NCC(=O)NCC(=O)OCC(=O)NC(=O)NC(C)(C)C)cc1C,/,/,-0.2,-2.3,-2%[15.4 µM],-11
COc1ccc(C(=O)NCC(=O)OCC(=O)NC(=O)NC2CCCCC2)cc1OC,2%,0.3%,-0.3,5.7,?,3
COc1ccc(S(=O)(=O)NCC2CCCN(C(=O)c3ccco3)C2)cc1 (configuration not stated),10%,0.3%,-1.0,-0.6,-11%[15.4 µM],-9
Cc1ccccc1S(=O)(=O)Cc1ccc(C(=O)NC2CCCCC2C)o1 (configuration not stated),3%,-1.4%,-1.1,0.2,?,-12
Cc1ccc(C)c(S(=O)(=O)N2CCN(C(=O)C3CCN(c4ncnc5sc(C)c(C)c45)CC3)CC2)c1,?,-13%,74*,/,1%[15.4 µM],-8
